GIRK2 act = GIRK2 channel activation; P48051; 63,000 tested, 0.05% active; calls only for hits at 25 µM; HEK293-GIRK2 thallium flux, Thallos fluorescence; AID 1259325;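 active means among the strongest 0.2% of first-round signals and kept after retests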;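 further: first round at about 10 µM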
Target sequence (P48051 whole entry, looked up): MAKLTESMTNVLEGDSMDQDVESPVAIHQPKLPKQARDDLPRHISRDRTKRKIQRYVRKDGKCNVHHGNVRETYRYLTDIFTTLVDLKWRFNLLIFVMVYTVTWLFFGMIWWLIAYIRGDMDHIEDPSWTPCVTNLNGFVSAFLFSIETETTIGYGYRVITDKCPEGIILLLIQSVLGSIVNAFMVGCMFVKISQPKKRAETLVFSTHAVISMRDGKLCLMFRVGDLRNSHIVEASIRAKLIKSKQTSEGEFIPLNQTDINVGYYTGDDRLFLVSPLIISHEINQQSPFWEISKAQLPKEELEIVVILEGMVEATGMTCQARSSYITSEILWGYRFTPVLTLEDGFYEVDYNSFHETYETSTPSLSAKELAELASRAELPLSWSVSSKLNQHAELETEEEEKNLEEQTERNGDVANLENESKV
Calls only; i = inactive. These rows are one share of the data (hit frequency here may not be typical).

SMILES | GIRK2 act
CC(C)S(=O)(=O)c1ccc(CC(=O)N2CC(c3nc4ccccc4[nH]3)C2)cc1 | i
N#Cc1nc(-c2ccc(S(=O)(=O)N3CCCC3)cc2)oc1NC1CCCCC1 | i
O=C(CCc1ccccc1)NC1CC(O)C(CO)C1 (centres undefined) | i
Cn1nnn(-c2ccc(NC(=O)C3CC(=O)N(c4ccc(Cl)cc4)C3)cc2)c1=O (centres undefined) | i
COc1cc(OC)cc(C(=O)Oc2c(S(=O)(=O)c3ccc(C)cc3)c(C)nn2C(C)(C)C)c1 | i
O=C(NCC1CCS(=O)(=O)C1)C1(c2cccs2)CCCC1 (centres undefined) | i
O=C(O)CCc1cccc(Cl)c1 | i
COCCn1nnn(-c2ccc(NC(=O)c3ccccc3C(F)(F)F)cc2)c1=O | i
C=C(C)COc1ccc(-c2n[nH]c(C)c2Oc2ccccc2OC)c(O)c1 | i
COc1ccccc1C1(CNC(=O)c2ccc(C(F)(F)F)cc2)CCOCC1 | i
CCC(=O)N1CCN(C(=O)C(NC(=O)c2ccccc2C)S(=O)(=O)c2ccccc2)CC1 (centres undefined) | i
NC(=O)CSc1nnc(CCc2nc3ccccc3s2)o1 | i

Four compounds picked at random from those above, as already listed:
SMILES | GIRK2 act
O=C(CCc1ccccc1)NC1CC(O)C(CO)C1 (centres undefined) | i
Cn1nnn(-c2ccc(NC(=O)C3CC(=O)N(c4ccc(Cl)cc4)C3)cc2)c1=O (centres undefined) | i
COc1cc(OC)cc(C(=O)Oc2c(S(=O)(=O)c3ccc(C)cc3)c(C)nn2C(C)(C)C)c1 | i
N#Cc1nc(-c2ccc(S(=O)(=O)N3CCCC3)cc2)oc1NC1CCCCC1 | i

More structures follow:
SMILES | GIRK2 act
O=C(COc1ccc2c(c1)O/C(=C\c1cccs1)C2=O)c1ccccc1 | i
CS(=O)(=O)c1cccc2sc(N(CCN3CCOCC3)C(=O)c3c[nH]c4ccccc34)nc12 | i
CC(C)(C)NC(=O)CSc1nc2c(c(C(F)(F)F)c1C#N)CCCC2 | i
COc1ccc(Cl)cc1C(=O)N1CCN(Cc2nnnn2-c2cccc(F)c2)CC1 | i
CN(c1ccccc1)S(=O)(=O)c1c(-c2ccccc2)csc1C(=O)NCc1ccco1 | i
N#C/C(=C\c1cc(Br)cc2c1OCOC2)c1nc2ccccc2o1 | i
Cn1c(CN2CCN(CC(=O)N3CCC(Cc4ccccc4)CC3)CC2)nc2ccccc21 | i
Cc1ccc(C(=O)Nc2ccc(Oc3ccccc3)cc2)cc1 | i
C=CCOc1cccc(C2c3c(oc4ccc(C)cc4c3=O)C(=O)N2c2nc(C)cs2)c1 (centres undefined) | i
COCCn1c(C)cc(C(=O)CSc2nc(-c3cccc([N+](=O)[O-])c3)cs2)c1C | i
COc1ccccc1-c1nnc(C2CCN(S(=O)(=O)c3cccnc3)CC2)s1 | i
COc1cccc(C(=O)NCc2sc(-c3ccccc3F)nc2C)c1OC | i
COC(=O)c1ccc(S(=O)(=O)NCCC(O)c2ccc3c(c2)OCO3)cc1 (centres undefined) | i
O=C(Nc1ccc2c(c1)C(=O)N1CCCCC1CCO2)c1ccc(-n2cccc2)cc1 (centres undefined) | i
CC(=O)c1ccc(N2CCN(C(=O)c3cnn4c(-c5ccncc5)ccnc34)CC2)cc1 | i
N#Cc1nc(/C=C/c2ccccc2)oc1N1CCN(C(=O)c2cccc(Cl)c2)CC1 | i
O=S(=O)(N1CCCCCC1)N1CCN(c2ccccc2Cl)CC1 | i
CC1(C(=O)Nc2cccc(C(=O)O)c2)Cc2ccccc2C(=O)O1 (centres undefined) | i
Cc1ccc(S(=O)(=O)NCc2ccccc2)c(C)c1N(C)S(=O)(=O)c1ccc(Cl)cc1 | i
Cc1ccc(C)c(CN2CCCN(CC(=O)N3CCN(c4ccc(F)cc4)CC3)S2(=O)=O)c1 | i
COCCn1c(SCc2cc(C(C)=O)ccc2OC)nc2cc(C(=O)OC)ccc2c1=O | i
COc1ccc2c(c1)c(CC(=O)NCc1ccc(C(=O)c3ccccc3)cc1)cn2C(=O)c1ccc(Cl)cc1 | i
O=C(NCCC(O)c1ccccc1)NCc1cccs1 (centres undefined) | i
CSc1cccc(NC(=O)c2c(S(=O)(=O)Nc3ccc(C)cc3)n[nH]c2C)c1 | i
C=CCn1c(=O)c2c(nc3n2CC(C)CN3c2ccc(OC)cc2)n(C)c1=O (centres undefined) | i
CC(=O)Nc1ccc(SCC(=O)Nc2nnc(C)s2)nn1 | i
COc1cccc2cc(C(=O)NCc3nn(C4CCCC4)c(=O)c4ccccc34)oc12 | i
COc1ccc(-c2cnc(SCC(=O)Nc3nnc(C)s3)n2-c2ccccc2)cc1 | i
Cc1ccc(C(=O)Nc2cc(C(=O)N3CCCC3)cn(C)c2=O)cc1 | i
Cc1ccccc1OCC(=O)NCCN1CCN(c2ccccc2F)CC1 | i
COc1cc[nH]c1/C=C1\C(=O)Nc2ccc(F)c(C#CC3(O)CCNCC3)c21 | i
CCOc1ccc(NC(=O)NCCC(O)c2cccs2)cc1 (centres undefined) | i
O=C1CC(c2nc(C3CC3)no2)CN1Cc1cccs1 (centres undefined) | i
COc1ccccc1N1CCN(C(CNS(=O)(=O)c2c(C)cc(C)cc2C)c2cccnc2)CC1 (centres undefined) | i
Cn1c(C2CCC(CNC(=O)c3cnccn3)CC2)nc2ccccc21 (centres undefined) | i
COc1ccc(-c2nnc3c4cnn(-c5ccc(C)c(C)c5)c4ncn23)cc1OC | i
CC(=O)C1=CCC(NC(=O)c2cc3c(=O)n(C)c(=O)n(C)c3n2Cc2ccccc2)C=C1 (centres undefined) | i
N#Cc1nc(-c2ccc(Cl)cc2Cl)oc1N1CCN(C(=O)c2cccs2)CC1 | i
CCOC(=O)c1cnn2ccc(NC(=O)Cc3ccc(OC)c(OC)c3)cc12 | i
Cc1cc(C)c(S(=O)(=O)NCCCC(=O)O)cc1N(C)S(C)(=O)=O | i
O=C(CC1CCCC1)Nc1nc(CN2CCc3ccccc3C2)cs1 | i
O=C(CCSc1nnc2scc(-c3ccccc3)n12)NCc1ccc2c(c1)OCO2 | i
COc1cc(CNC(=O)CCCCCCC(C)C)ccc1O | i
N#Cc1ccc(COCC2CCN(CC(=O)NCC3CCCO3)CC2)cc1 (centres undefined) | i
Cc1cc(NS(=O)(=O)c2ccc(NC(=O)c3cc4cc([N+](=O)[O-])ccc4s3)cc2)no1 | i
O=C1c2oc3ccc(Cl)cc3c(=O)c2C(c2ccccc2)N1CCCO (centres undefined) | i
COc1ccc(OC)c(N2CCn3c2nc2c3c(=O)n(Cc3cccc(C)c3)c(=O)n2C)c1 | i
COc1cc([N+](=O)[O-])ccc1NC(=O)c1nnn(-c2ccc(Cl)cc2)c1C | i
CCc1cccc2sc(NC(=O)Nc3c(F)cccc3F)nc12 | i
COc1ccc(OC)c(NC(=O)Cn2cnc3c(sc4cccc(Cl)c43)c2=O)c1 | i
CSc1ccc(-c2noc(-c3ccc(CS(=O)(=O)c4ccc(Cl)cc4)o3)n2)cc1 | i
CCN(CC)C(=O)N1CCN(S(=O)(=O)c2ccc(Cl)cc2)CC1 | i
O=C(CN1CCN(CC(O)c2cccs2)CC1)NCc1ccco1 (centres undefined) | i
COc1ccccc1NC(=O)NC1CCN(c2ccc(-c3ccccc3Cl)nn2)CC1 | i
COC(=O)c1ccc(NC(=O)Cn2nc3c4sc(N5CCCC5)nc4ncn3c2=O)cc1 | i
NC(=O)c1ccc(NS(=O)(=O)c2ccc(N3C(=O)CCC3=O)cc2)cc1 | i
CCCCOc1ccccc1-c1cc2c(=O)n(Cc3nc(-c4ccc(C)cc4)no3)ccn2n1 | i
CC(C)Cn1c(-c2ccccc2F)nc2c(c(=O)c3ccccc3n2C)c1=O | i
COc1ccc(-c2noc(-c3c(C)cc(C)n(CC(=O)Nc4ccc(C)c(F)c4)c3=O)n2)cc1 | i
CCOCCCNC(=O)c1c(N)n(-c2ccccc2)c2nc3ccccc3nc12 | i
Later entries:
SMILES | GIRK2 act
CC(C)=Cc1cccc2[nH]c(O)c(N=Nc3ccc(S(N)(=O)=O)cc3)c12 | i
Cc1ccc(-n2nnc3c(=O)n(CC(=O)N4CCOCC4)cnc32)cc1C | i
COc1ccccc1N1CCN(CCNC(=O)COc2ccc(Cl)cc2)CC1 | i
COc1ccc(Cl)cc1C(=O)NCCN1CCN(c2ccccc2OC)CC1 | i
Cc1c(C(=O)NCC(c2cccc3ccccc23)N2CCOCC2)cccc1[N+](=O)[O-] (centres undefined) | i
COc1ccc(Cn2ccn3nc(-c4ccc(F)cc4)c(CO)c3c2=O)cc1F | i
NC(=O)NC12CC3CC(CC(C3)C1)C2 | i
Cc1cc(C)cc(N(Cc2ccccc2)S(=O)(=O)c2cccn3cnnc23)c1 | i
Cc1ccc(C(C)C)c(OCC(O)CNC2CCCCC2)c1 (centres undefined) | i
CCCCC[C@H](O)/C=C/[C@H]1C(=O)C[C@H](O)[C@@H]1CCCCCCCO | i
COc1cccc(-n2nnc(C(=O)NCc3ccc(SC)cc3)c2-c2ccncc2)c1 | i
COc1ccc2nc(-n3nc(C)cc3NC(=O)c3cc4ccccc4oc3=O)sc2c1 | i
O=C(CSc1ccc(F)cc1)N1C2CCC1COC2 | i
O=C(NCC(O)c1ccoc1)c1ccc(OC(F)(F)F)cc1 (centres undefined) | i
CCc1ccc(NC(=O)Cn2cc(S(=O)(=O)c3ccc(C)cc3)c(=O)c3cc(CC)ccc32)cc1 | i
Cc1ccc(-c2nsc3c(=O)n(CC(=O)NC4CCCCC4)cnc23)cc1 | i
O=C(C1CCC(Cn2c(=O)[nH]c3ccsc3c2=O)CC1)N1CCN(c2ccccc2F)CC1 (centres undefined) | i
Cn1c(=O)[nH]c(=O)c2c1nc(N1CCN(CC(N)=O)CC1)n2Cc1ccc(Br)cc1 | i
COc1cc(NC(=O)Nc2nc3c(F)cccc3s2)cc(OC)c1OC | i
O=C(C1CC=CCC1)N1CCC(Oc2ccc(C(F)(F)F)cn2)CC1 (centres undefined) | i
Cn1ccnc1SCC1CCN(C(=O)COc2ccccc2F)CC1 | i
CCOc1ccc(S(=O)(=O)N(CCc2cccs2)Cc2ccco2)cc1F | i
O=C(NC1CC(=O)N(C2CC2)C1)c1ccco1 (centres undefined) | i
CC1CCN(S(=O)(=O)CCNC(=O)c2ccc3c(c2)OCO3)CC1 | i
O=C(CSc1nnc(Cn2ccc(=O)[nH]c2=O)o1)Nc1ccc(Cl)cn1 | i
Cc1ccnc(SCC(N)=O)n1 | i
CN(C)CC1COCCN1C(=O)c1ccco1 (centres undefined) | i
COc1ccccc1-c1csc(-c2nnn(-c3ccc(Cl)cc3)c2N)n1 | i
COc1ccccc1N1CCN(C(c2cccs2)C(C)NS(=O)(=O)c2ccc(F)cc2)CC1 (centres undefined) | i
CC(C)(Oc1ccc(Cl)cc1)C(=O)NCC1CCS(=O)(=O)C1 (centres undefined) | i
C/C=C/C/C=C/CCC(=O)[C@@H]1O[C@@H]1C(N)=O | i
COc1cccc(NC(=O)c2ccc(N3C(=O)c4ccccc4C3=O)cc2)c1 | i
Cc1ccc(C2CC(c3cccs3)=NN2C(=O)c2ccco2)o1 (centres undefined) | i
CCCN1C(=O)CCc2cc(NC(=O)COc3ccc(Cl)cc3Cl)ccc21 | i
C[C@H]1[C@H](C)CC[C@]2(C(=O)O[C@@H]3O[C@H](CO)[C@@H](O)[C@H](O)[C@H]3O)CC[C@]3(C(=O)O)C(=CCC4[C@@]5(C)CC[C@H](O[C@@H]6O[C@H](CO)[C@@H](O)[C@H](O)[C@H]6O)C(C)(C)C5CC[C@]43C)[C@H]12 (some centres undefined) | i
O=S(=O)(CCc1ccccc1)NCC1CCN(S(=O)(=O)c2cccnc2)CC1 | i
Cc1cn2c(CCC(=O)Nc3nc(-c4ccco4)cs3)csc2n1 | i
Cc1cc(=O)[nH]c(-n2nc(-c3cccs3)cc2NC(=O)Cc2cccs2)n1 | i
O=C(Cn1c(/C=C/c2ccccc2)nc2ccccc21)NCc1ccco1 | i
Cc1ccc(N2CC(NC(=O)c3ccccc3C(F)(F)F)CC2=O)cc1 (centres undefined) | i
O=C(C1COc2ccccc2O1)N1CCN(Cc2nncn2-c2ccccc2F)CC1 (centres undefined) | i
O=C(NCCC(O)c1ccccc1)c1cccc(Br)c1 (centres undefined) | i
Cc1cn2c3c(=O)n(C/C=C/c4ccccc4)c(=O)n(C)c3nc2n1CCCn1ccnc1 | i
C=CCc1ccccc1OCC(O)CN(CCO)CCO (centres undefined) | i
COC(=O)Cn1c(=O)c2c(nc3n2CC(C)CN3c2cc(C)cc(C)c2)n(C)c1=O (centres undefined) | i
Cc1ccc(-c2noc(-c3cccn4c(=O)n(CC(=O)Nc5cc(C)ccc5C)nc34)n2)cc1 | i
O=C(CCn1cnc2ccccc2c1=O)NCC#CCN1CCCCC1 | i

Among those listed so far, these contain an aryl thioether with sulfur outside any ring.
SMILES | GIRK2 act
NC(=O)CSc1nnc(CCc2nc3ccccc3s2)o1 | i
CC(C)(C)NC(=O)CSc1nc2c(c(C(F)(F)F)c1C#N)CCCC2 | i
COCCn1c(C)cc(C(=O)CSc2nc(-c3cccc([N+](=O)[O-])c3)cs2)c1C | i
COCCn1c(SCc2cc(C(C)=O)ccc2OC)nc2cc(C(=O)OC)ccc2c1=O | i
CSc1cccc(NC(=O)c2c(S(=O)(=O)Nc3ccc(C)cc3)n[nH]c2C)c1 | i
CC(=O)Nc1ccc(SCC(=O)Nc2nnc(C)s2)nn1 | i
COc1ccc(-c2cnc(SCC(=O)Nc3nnc(C)s3)n2-c2ccccc2)cc1 | i
O=C(CCSc1nnc2scc(-c3ccccc3)n12)NCc1ccc2c(c1)OCO2 | i
CSc1ccc(-c2noc(-c3ccc(CS(=O)(=O)c4ccc(Cl)cc4)o3)n2)cc1 | i
COc1cccc(-n2nnc(C(=O)NCc3ccc(SC)cc3)c2-c2ccncc2)c1 | i
O=C(CSc1ccc(F)cc1)N1C2CCC1COC2 | i
Cn1ccnc1SCC1CCN(C(=O)COc2ccccc2F)CC1 | i
O=C(CSc1nnc(Cn2ccc(=O)[nH]c2=O)o1)Nc1ccc(Cl)cn1 | i
Cc1ccnc(SCC(N)=O)n1 | i

Assay outcomes from PubChem BioAssay.
